High-throughput results: PubChem BioAssay, National Center for Advancing Translational Sciences (NCATS)
A647 autofl = compound fluoresces in the A647 spectral region | Compound fluorescence, A647 channel (570/671 nm), Tris buffer | max dye-equivalent concentration, M | 59,000 tested, under 10 active | AID 592; active means above 1 µM dye equivalent; inconclusive means 0.1 to 1 µM; inactive means 0.1 µM or less;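 note: values scaled relative to a standard on each plate; highest value over a series up to 38 µM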
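Fluorescence read (570 nm ex, 671 nm em) after 15 min RT incubation of compounds in 100 mM Tris buffer, pH 8.0; values expressed as dye-equivalent concentration against a six-point A647 standard series on each plate.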
Resorufin autofl = resorufin region autofluorescence; AID 588; max dye-equivalent concentration, M; Compound fluorescence, resorufin region 547/598 nm, buffer; active compounds read high; 59,000 tested, 0.04% active; active = above 10 nM dye equivalent; inconclusive = 1 to 10 nM; inactive = 1 nM or less; a few of its hits are not listed in these tables; note: highest value over a series up to 38 µM
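Dye-equivalent concentration values derive from comparing each well's 547/598 nm fluorescence against resorufin standards included on every plate. Incubation was 15 min at room temperature in 100 mM Tris, pH 8.0.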
TSHR agonist = activates the human thyroid stimulating hormone receptor; P16473; 73,000 tested, 0.48% active; AID 926; HEK293-CNG-TSHR cells (CNG channel as cAMP sensor), membrane potential dye, cAMP; Potency, µM (titrated, usually from 57.1 µM), inactives show at the highest dose activation, actives largely listed as activators; active = well fitted activation curve of enough size with the parental cells flat; inconclusive = any curve in the parental cells; inactive = parental cells flat and receptor cells flat or falling; note: potency is the fitted concentration of half-maximal effect; % of control where 0% means no effect; weak receptor curves with flat parental cells got no call and are not listed
Target sequence (P16473 whole entry, looked up): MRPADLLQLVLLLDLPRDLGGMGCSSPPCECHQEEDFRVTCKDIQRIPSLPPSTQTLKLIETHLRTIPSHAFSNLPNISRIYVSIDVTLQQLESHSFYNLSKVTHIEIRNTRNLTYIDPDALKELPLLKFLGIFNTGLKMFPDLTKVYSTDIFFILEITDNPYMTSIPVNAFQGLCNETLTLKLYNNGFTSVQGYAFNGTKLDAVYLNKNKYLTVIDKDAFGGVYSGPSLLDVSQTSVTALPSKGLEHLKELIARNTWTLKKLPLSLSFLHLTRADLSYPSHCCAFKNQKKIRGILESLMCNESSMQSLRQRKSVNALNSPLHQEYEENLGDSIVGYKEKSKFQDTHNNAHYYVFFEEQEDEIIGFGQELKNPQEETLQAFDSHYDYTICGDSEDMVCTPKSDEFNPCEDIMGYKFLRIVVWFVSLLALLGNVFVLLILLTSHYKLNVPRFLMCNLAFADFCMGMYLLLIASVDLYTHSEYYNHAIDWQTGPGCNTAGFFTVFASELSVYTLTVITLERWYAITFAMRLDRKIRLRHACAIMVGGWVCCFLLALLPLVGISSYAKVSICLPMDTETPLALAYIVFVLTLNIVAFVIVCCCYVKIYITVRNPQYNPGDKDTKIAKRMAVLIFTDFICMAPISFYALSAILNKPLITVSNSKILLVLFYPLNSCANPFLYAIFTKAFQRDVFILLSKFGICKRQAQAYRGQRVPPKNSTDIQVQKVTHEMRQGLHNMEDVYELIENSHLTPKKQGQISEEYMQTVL
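HEK 293 cells stably expressing TSHR and a cAMP-gated CNG channel; parental CNG-only cells as counterscreen. Cells preloaded 60 min with membrane potential dye plus 100 uM RO 20-1724, then compound 30 min; fluorescence read at 590 nm.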
A488 autofl = compound autofluorescence in A488 spectral region | AID 591 | 59,000 tested, 0.1% active | max dye equivalency, M | compound autofluorescence, A488 spectral region, dye equivalency; active compounds read high; active = above 10 nM dye equivalent; inconclusive = 1 to 10 nM; inactive = 1 nM or less; about half of its hits are not listed in these tables;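 note: highest value over a series up to 38 µM; compound alone in buffer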
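Readout is A488 dye-equivalent concentration, calibrated by a per-plate six-point Alexa 488 series. Compounds in 100 mM Tris buffer pH 8.0 were incubated 15 min at room temperature. Plates were imaged using 480 nm excitation/540 nm emission filters.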
AID923 = qHTS Assay for Allosteric/Competitive Inhibitors of Caspase-1: Spectroscopic Profiling in AFC Spectral Region; compound fluorescence, AFC spectral region (405/520 nm); almost no hit is shown here; Potency, µM (titrated, usually from 57.5 µM), for inactives: at the top dose fluorescence increase, actives largely listed as activators; 75,000 tested, 1.1% active; AID 923, 2007; active = well fitted activation curve with a large enough effect; inconclusive = small, poorly fitted or top-dose-only effect;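 note: potency is the fitted concentration of half-maximal effect; 0% is about no effect; scaled to a free AFC standard on each plate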
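Titrations up to 57 uM read every 20 sec for 3 min (405/520 nm) with 50 nM caspase 1 and 5 uM Ac-WEHD-AFC, pH 7.5 HEPES buffer. Fluorescence-vs-time intercept gave baseline, scaled against on-plate AFC standard.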
Active calls of the source: *; i = inactive; ? = inconclusive; nt = not tested or not shown; & = joins results of further samples; [ ] = remark or other dose. This is a subset; count on the stated rates, not on these rows.

SMILES	A647 autofl	Resorufin autofl	TSHR agonist	A488 autofl	AID923
O=C(NC1=NCCS1)C1Cc2ccccc2CN1C(=O)c1ccccc1 (stereo not given)	7e-09	i	0%	i	0.1%
CCN(CC)C(=O)CSc1nc2cccnc2n1-c1ccccc1OC	4.2e-09	i	6%	i	0.1%
Cn1c(CCNC(=O)c2ccco2)nc2cc(NC(=O)C3CCCCC3)ccc21	3.2e-08	i	2%	i	-0.7%
CC1CCc2c(nc3ncnn3c2N2CC(C)OC(C)C2)C1 (stereo not given)	1e-09	i	2%	i	-0.3%
CC1(C)CC(=O)C(C=Nc2ccccc2)=C(O)C1	nt	nt	?	nt	-1.9%
CCC(=O)Nc1ccc(NC(=O)c2ccco2)cc1	1e-09	i	0%	i	-0.6%
C=CCn1c(=O)c2ccccc2n2c(SCC(=O)/C(C#N)=C(\C)N)nnc12	1e-09	i	-2%[11.4 µM]	i	-0.9%
CCOc1ccccc1CNc1ccc(N2CCOCC2)c(C(=O)O)c1	1e-09	i	10%	i	1.6%
CCSc1nnc(Nc2ccccc2)s1	1e-09	i	3%	i	-0.9%
O=C(CC1(C(F)(F)F)OCCO1)Nc1ccc2c(c1)OCO2	2.1e-08	i	nt	i	0.0%
CC1CCC(C(=O)O)NC1c1cccc(N2CCOCC2)c1 (stereo not given)	nt	nt	-3%[11.4 µM]	nt	1.5%[11.5 µM]
COCCNC(=O)c1ccc2c(c1)ncn2-c1ccc(F)c(F)c1	2.8e-08	i	6%[11.4 µM]	i	1.7%
O=C(Cn1cc2c(n1)CCCC2)NCc1cccnc1	nt	nt	1%	nt	-1.7%
CCOC(=O)N1CCN(c2nc(C)c3c(n2)CC(C)CC3=O)CC1 (stereo not given)	1e-09	i	nt	i	-0.2%
COc1cccc(OCCNC(=O)c2cccc(OC)c2)c1	1e-09	i	10%	i	0.1%
Cc1ccccc1-n1nnnc1SC1CCOC1=O (stereo not given)	1.6e-08	i	-2%	i	0.2%
COc1cc(OC)cc(C(=O)N2CCN(S(C)(=O)=O)CC2)c1	2.4e-08	i	2%	i	-0.6%
COc1ccc(CCNC(=O)CN2C(=O)c3ccccc3S2(=O)=O)cc1	2.9e-09	i	5%	i	2.2%
O=C(COc1ccc(Cl)cc1)Nc1ccccc1CO	2.9e-09	i	nt	i	nt
Cc1ccc(-n2nc(-c3cccs3)cc2C(=O)NCC2CCCO2)c(C)c1 (stereo not given)	1.1e-08	i	?	i	0.6%
O=C(NCN1C(=O)C2C3C=CC(C3)C2C1=O)Nc1nncs1 (stereo not given)	2.8e-09	i	-6%	i	-0.7%
CCNC(=O)CC1C(=O)N(c2ccc(F)cc2)C(=O)N1Cc1ccc(OC)cc1 (stereo not given)	2.1e-08	i	-1%	i	1.3%
N/C(CSc1nc(-c2ccccc2)c(-c2ccccc2)o1)=N\O	nt	nt	?	nt	1.9%
COc1ccc(CNc2n[nH]c(NCc3ccc(OC)c(OC)c3)n2)cc1OC	2.4e-08	i	2%	i	1.1%
CC1CCc2c(sc3nc(C4CC4)nc(SCC(=O)NCc4ccco4)c23)C1 (stereo not given)	4.4e-08	i	3%	i	3.7%
CN1C(=O)N(C)C2(CC1(C)C)CC(C)(C)N(C)C(=O)N2C	3.8e-08	i	8%	i	-1.1%
O=C(CCN1C(=O)c2ccccc2C1=O)Nc1ccc(-c2cn3ccsc3n2)cc1	5.8e-09	i	?	i	-0.6%
CCCNc1ncnc2c1cnn2-c1ccc(OC)cc1	2.1e-08	i	nt	i	nt
c1ccc(NCc2nc(-c3ccccc3)no2)cc1	4.2e-09	i	nt	i	-1.5%
Cn1cnc2c(sc3nc(N4CCOCC4)c4c(c32)CC(C)(C)OC4)c1=O	nt	nt	?	nt	5.4%
CCCc1nc(N2CCN(C)CC2)c2sc(=S)n(-c3ccccc3)c2n1	nt	nt	4%	nt	3.0%
N=c1n(CCN2CCCCC2)c2ccccc2n1CC(O)COc1ccccc1 (stereo not given)	9.4e-09	i	?	i	-0.2%
O=C(CCCc1ccccc1)NC1CCSC1=O (stereo not given)	nt	nt	4%[11.4 µM]	nt	4.4%
CCOc1cc(C2/C(=C(\O)c3cc(C)ccc3C)C(=O)C(=O)N2CCN(C)C)ccc1O (stereo not given)	1.4e-08	i	-6%	i	-0.3%
Cc1cnc(C(=O)OCC(=O)NC2CCCC(C)C2C)cn1 (stereo not given)	1.4e-08	i	14%	i	0.6%
COC(=O)C1=C(C)C(c2ccc(OC)cc2OC)NC(=O)N1 (stereo not given)	3.3e-08	i	3%	i	1.5%
N#CCCN1CCN(S(=O)(=O)c2ccc(C#N)cc2)CC1	3.4e-08	i	-6%	i	-1.3%
O=C(NCc1ccco1)c1ccc(=O)oc1	9.4e-09	i	nt	i	nt
CCOc1ccc(-n2c(Cc3cc(=O)[nH]c(=O)[nH]3)nnc2SCc2cccnc2)cc1	nt	nt	-1%	nt	-1.2%
COc1cccc(NC(=O)C2CC(=O)OC23CCOC(C)(C)C3)c1 (stereo not given)	nt	nt	-3%	nt	7.0%
COc1cccc(-c2nc(N3CCCCC3)c3ccccc3n2)c1O	1e-09	i	nt	i	nt
CCOC(=O)C1CCCN(S(=O)(=O)c2cccs2)C1 (stereo not given)	3.7e-08	i	8%	i	0.4%
Cc1nnc(NC(=O)Oc2ccccc2)s1	1.8e-08	i	-4%	i	-0.2%
CCN(CCCNC(=O)CN(C)S(=O)(=O)c1cccc2nsnc12)c1ccccc1	1e-09	i	-5%	i	-1.3%
CC1=CC(=O)C2=C(C)CC[C@@H]3[C@@H](OC(=O)[C@H]3C)[C@H]12	1e-09	i	10%[25.6 µM]	i	0.5%[25.7 µM]
CC(=O)N1c2c(cc(Br)cc2S(=O)(=O)N2CCN(C(=O)c3ccco3)CC2)CC1C (stereo not given)	1e-09	i	4%[11.4 µM]	i	1.3%
O=C(NC(C(=O)O)c1ccccc1)c1ccc(S(=O)(=O)N2CCOCC2)cc1 (stereo not given)	1.9e-08	i	1%	i	0.8%
COC(=O)c1cc(NCc2c(F)cccc2Cl)ccc1N1CCOCC1	3.9e-08	i	-11%	i	4.9%
CCc1nnc(NC(=O)CSc2nnc(-c3cc4ccccc4cc3O)n2CCOC)s1	2.7e-09	i	11%	i	-0.2%
CCOc1ccc(S(=O)(=O)NCCC(=O)OCN2C(=O)c3ccccc3C2=O)cc1	5.2e-09	i	-2%	i	-0.6%
Cc1cccc2sc(NC(=O)C3CCCN(S(=O)(=O)c4cccc5nonc45)C3)nc12 (stereo not given)	1.7e-08	i	-17%	i	3.5%
O=C(NC1CCCCC1)c1ccc(N2CCCC2=O)cc1	1.7e-09	i	?	i	-1.3%
CCN(CC)c1ccc(NC(=O)Nc2cccc(C(C)=O)c2)cc1	3.9e-09	i	-31%[inhibitor]	i	0.8%
CCOc1ccc(NC(=O)C2CCCN(S(=O)(=O)c3c(C)nn(C)c3C)C2)cc1 (stereo not given)	nt	nt	3%	nt	-1.6%
Cc1ccc2cc3c(nc2c1)N(Cc1ccco1)CC3	7.4e-09	i	?	i	0.5%
O=C(c1ccncc1)N1CCC2(CC1)CCN(C(c1ccccc1)c1ccccc1)CC2	4.6e-09	i	5%	i	-2.2%
COCCNC(=O)CN1c2ccccc2CC1C (stereo not given)	4.2e-09	i	0%	i	-0.4%
CC(C)(Oc1ccc(-c2ccco2)cc1)C(=O)O	nt	nt	?	nt	2.6%
CCc1ccc(S(=O)(=O)NCCc2cn3ccccc3n2)s1	1e-09	i	2%	i	1.2%
O=C(Nc1ccc2c(c1)OCCO2)C1CCCN(c2ncccn2)C1 (stereo not given)	1e-09	i	-2%	i	-3.1%

The list continues:
SMILES	A647 autofl	Resorufin autofl	TSHR agonist	A488 autofl	AID923
CO[C@@H]1COC(=O)[C@H](C)NC(=O)C/C=C\[C@@H](C)[C@@H](NS(=O)(=O)c2ccc(C)cc2)COC(=O)C/C=C\[C@@H]1C	nt	nt	16%[11.4 µM]	nt	-1.0%[11.5 µM]
C=C(C)C1CC=C(C)C(O)C1 (stereo not given)	nt	nt	?	nt	-0.5%
CC(C)C(=O)Nc1ccc(N2CCN(S(C)(=O)=O)CC2)cc1	8.8e-09	i	5%[11.4 µM]	i	-1.1%
CN1C(=O)N(C)C2C1NC(=O)N2C (stereo not given)	3.2e-08	i	1%	i	0.1%
COCCNC(=O)C(C)Oc1ccc(Cl)cc1Cl (stereo not given)	nt	nt	8%[11.4 µM]	nt	1.9%
Cc1cc2ccccc2c(=O)n1CC(=O)NCC(=O)N1CCN(c2ccccc2)CC1	2.1e-08	i	-2%	i	0.4%
CCCCC#Cc1nc(N)c2ncn([C@@H]3O[C@@H](C(=O)NCC)[C@H](O)[C@@H]3O)c2n1	4.5e-09	i	?	i	-5.1%
Clc1ccc(COc2ccccn2)c(Cl)c1	5e-08	i	nt	i	nt
CCCc1c(-c2ccc(O)cc2)nn(-c2ccc(O)cc2)c1-c1ccc(O)cc1	1e-09	i	?	i	-4.3%
COc1ccccc1NC(=O)CSc1nc2ccccc2n1C(C)=O	2.4e-08	i	14%	i	-0.3%
FC(F)(F)c1ccccc1-c1cc(NCc2ccccc2)ncn1	1e-09	i	?	i	0.0%
O=C(COc1ncnc2ccc(Br)cc12)N1CCOCC1	1.5e-09	i	-12%	i	0.4%

Four entries from above, ordered by SMILES length, high to low.
SMILES	A647 autofl	Resorufin autofl	TSHR agonist	A488 autofl	AID923
Cc1cc2ccccc2c(=O)n1CC(=O)NCC(=O)N1CCN(c2ccccc2)CC1	2.1e-08	i	-2%	i	0.4%
COc1ccccc1NC(=O)CSc1nc2ccccc2n1C(C)=O	2.4e-08	i	14%	i	-0.3%
O=C(COc1ncnc2ccc(Br)cc12)N1CCOCC1	1.5e-09	i	-12%	i	0.4%
Clc1ccc(COc2ccccn2)c(Cl)c1	5e-08	i	nt	i	nt

Continued.
SMILES	A647 autofl	Resorufin autofl	TSHR agonist	A488 autofl	AID923
COc1ccc(O[C@H]2C=C[C@@H](c3ccccc3)O[C@@H]2CON=C(C)C)cc1	nt	nt	14%[11.4 µM]	nt	1.0%[11.5 µM]
CCOc1ccc(N(CC(=O)O)S(=O)(=O)c2ccc(F)cc2)cc1	3.4e-08	i	7%	i	-0.9%
O=C(O)Cc1cc(I)c(Oc2ccc(O)c(I)c2)c(I)c1	4.8e-08&1e-09	i	-14%[25.6 µM]	i	-1.0%[25.7 µM]
COc1ccc(CSc2nnnn2C)cc1F	nt	nt	5%	nt	3.3%
CCCCN1CCC(COC(=O)c2cc(Cl)c(N)c3c2OCCO3)CC1	3.1e-09	i	1%	i	-0.1%
CCOCC(=O)Nc1ccc(F)c(F)c1	2.2e-08	i	nt	i	0.8%
Cc1ccc(C)c(N2C(=O)CN=C2Nc2ccccc2Cl)c1	2.5e-08	i	-1%	i	0.6%
O=C1CCCC2=C1C(O)(C(F)(F)F)C(=O)N2Cc1ccccc1 (stereo not given)	4.6e-09	i	3%[11.4 µM]	i	1.4%
CN(C(=O)c1cccc(C#N)c1)c1nnc(-c2cnccn2)s1	3.7e-08	i	?	i	0.3%
Cc1n[nH]c(C)c1S(=O)(=O)N1CCN(C2CCCCC2)CC1	1.3e-09	i	5%	i	-4.6%
Cc1c(N=C=O)cccc1N=C=O	nt	nt	3%	nt	3.9%
CC(CN1CCCCC1)OC(=O)Cc1ccc(Cl)cc1 (stereo not given)	2.9e-08	i	?	i	0.0%
CCCCN(CCCNC(=O)C1CCN(S(=O)(=O)N2CCOCC2)CC1)Cc1ccccc1	1e-09	i	-2%	i	-0.5%
CN=C(Nc1ccc2c(c1)OCO2)SC1CC(=O)N(c2ccccc2)C1=O (stereo not given)	1e-09	i	-16%	i	0.7%
